# Source: PubChem
# A488 fluor: qHTS Assay for Spectroscopic Profiling in A488 Spectral Region; compound autofluorescence, A488 spectral region, dye equivalency; stronger effect = higher value; max dye equivalency, M; 59,000 compounds, 0.1% hits; active = above 10 nM dye equivalent; inconclusive = 1 to 10 nM; inactive = 1 nM or less; about half of its hits are not listed in these tables;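 further: highest value over a series up to 38 µM; compound alone in buffer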
#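 Read-out: relative fluorescence at 480/540 nm, expressed as Alexa 488 dye-equivalent concentration from a six-point A488 standard included per plate. Conditions: 100 mM Tris, pH 8.0; 15 min incubation, room temperature.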
# AID923: qHTS Assay for Allosteric/Competitive Inhibitors of Caspase-1: Spectroscopic Profiling in AFC Spectral Region | compound fluorescence, AFC spectral region (405/520 nm); almost no hit is shown here | Potency, µM (top dose mostly 57.5 µM), for inactives: at the top dose fluorescence increase, actives largely listed as activators | 75,000 compounds, 1.1% hits | AID 923, 2007; active means well fitted activation curve with a large enough effect; inconclusive means small, poorly fitted or top-dose-only effect;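 further: potency means the concentration at half of the fitted maximal effect; 0% is about no effect; scaled to a free AFC standard on each plate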
#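 Baseline compound fluorescence (AFC region, 405 nm ex/520 nm em) taken from the intercept of kinetic reads with 50 nM caspase-1 and 5 uM Ac-WEHD-AFC; normalized to an on-plate AFC standard curve; compounds titrated up to 57 uM.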
# TSHR agonist: qHTS Assay for Agonists of the Thyroid Stimulating Hormone Receptor; Thyrotropin receptor (Homo sapiens), P16473; HEK293-CNG-TSHR cells (CNG channel as cAMP sensor), membrane potential dye, cAMP; Potency, µM (titrated, usually from 57.1 µM), for the others: at the highest dose activation, usual class: activators; 73,000 compounds, 0.48% hits; AID 926, 2007; active = well fitted activation curve of enough size with the parental cells flat; inconclusive = any curve in the parental cells; inactive = parental cells flat and receptor cells flat or falling; further: potency means the concentration at half of the fitted maximal effect; % of control where 0% means no effect; weak receptor curves with flat parental cells got no call and are not listed
# Target sequence (P16473 whole entry, looked up): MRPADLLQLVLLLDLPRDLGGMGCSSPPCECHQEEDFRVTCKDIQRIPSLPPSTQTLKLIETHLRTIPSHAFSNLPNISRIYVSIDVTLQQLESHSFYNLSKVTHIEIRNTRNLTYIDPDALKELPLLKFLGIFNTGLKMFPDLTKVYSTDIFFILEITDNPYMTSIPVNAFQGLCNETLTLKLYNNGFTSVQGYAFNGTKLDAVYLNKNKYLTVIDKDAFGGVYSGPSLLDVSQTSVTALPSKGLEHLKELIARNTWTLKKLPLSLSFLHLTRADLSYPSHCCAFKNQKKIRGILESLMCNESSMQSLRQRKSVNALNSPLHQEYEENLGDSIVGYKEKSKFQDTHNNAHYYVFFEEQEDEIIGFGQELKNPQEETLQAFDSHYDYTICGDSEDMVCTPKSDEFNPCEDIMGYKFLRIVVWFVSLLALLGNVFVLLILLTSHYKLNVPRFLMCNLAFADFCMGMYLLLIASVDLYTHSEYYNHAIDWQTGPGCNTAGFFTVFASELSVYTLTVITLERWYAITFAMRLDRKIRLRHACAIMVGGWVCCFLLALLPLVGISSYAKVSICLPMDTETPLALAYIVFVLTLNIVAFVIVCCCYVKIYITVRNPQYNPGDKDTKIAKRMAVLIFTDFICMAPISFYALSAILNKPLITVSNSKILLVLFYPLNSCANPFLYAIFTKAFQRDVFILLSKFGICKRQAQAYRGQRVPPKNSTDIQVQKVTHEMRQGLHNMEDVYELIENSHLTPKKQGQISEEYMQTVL
#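 HEK 293 cells stably expressing TSHR and a cAMP-gated CNG channel; parental CNG-only cells as counterscreen. Cells preloaded 60 min with membrane potential dye plus 100 uM RO 20-1724, then compound 30 min; fluorescence read at 590 nm.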
# Resorufin fluor: qHTS Assay for Spectroscopic Profiling in Resorufin Spectral Region; Compound fluorescence, resorufin region 547/598 nm, buffer; stronger effect = higher value; max dye-equivalent concentration, M; 59,000 compounds, 0.04% hits; active = above 10 nM dye equivalent; inconclusive = 1 to 10 nM; inactive = 1 nM or less; a few of its hits are not listed in these tables; further: highest value over a series up to 38 µM
#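 Compounds in 100 mM Tris buffer, pH 8.0, incubated 15 min at room temperature, then read with 547 nm excitation and 598 nm emission filters. Fluorescence was converted to dye-equivalent concentration using an on-plate six-point resorufin standard curve.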
# A647 fluor: qHTS Assay for Spectroscopic Profiling in A647 Spectral Region | max dye-equivalent concentration, M | Compound fluorescence, A647 channel (570/671 nm), Tris buffer | 59,000 tested, under 10 active; active means above 1 µM dye equivalent; inconclusive means 0.1 to 1 µM; inactive means 0.1 µM or less;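 further: values scaled relative to a standard on each plate; highest value over a series up to 38 µM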
#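 Compound fluorescence was measured in 100 mM Tris buffer, pH 8.0, after 15 min at room temperature, using 570 nm excitation and 671 nm emission filters. Signal was normalized to a per-plate Alexa 647 standard curve and expressed as dye-equivalent concentration at each compound concentration.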
# * = called active by the depositor; i = inactive; ? = inconclusive; / = not tested or not shown; [ ] = remark or other dose. Some of the compounds tested; rates above refer to the full screens.
SMILES,A488 fluor,AID923,TSHR agonist,Resorufin fluor,A647 fluor
Nn1c(SCC(=O)Nc2ccccc2)nnc1-c1cccnc1,i,-1.1%,-3%,i,4.3e-09
O=C(C1CCCN(c2nnc(-n3cccc3)s2)C1)N1CCN(c2ccccc2)CC1 (configuration not stated),/,-2.0%,6%,/,/
COCCNc1cc(-c2ccccc2CN(C)C)ncn1,i,-0.2%,7%,i,1e-09
CCN(CC)c1ccc2c(c1)C(=O)N(C)C2=O,i,6.4%,-8%,i,1e-08
Cc1nnsc1-c1nc2ccccc2[nH]1,i,0.0%,-11%,i,1e-09
O=C(NCCc1ccc(Cl)cc1)c1nnc(Cc2ccc(Cl)cc2)o1,/,-0.8%,-5%,/,/
CN1CCCC2(CCN(C(=O)c3cccn3C)CC2)C1,i,1.7%,?,i,1e-09
CN1CCN(P(=O)(c2ccccc2)c2nc3ccccc3s2)CC1 (configuration not stated),i,-0.6%,0%,i,1e-09
O=C(NCCn1cc(SCC(=O)N2CCOCC2)c2ccccc21)c1ccccc1,/,2.0%,0%,/,/
CCOc1ccc(OCc2ccc(C(=O)NCc3ccncc3)o2)cc1,i,-0.7%,10%,i,4.1e-09
Cc1c(C)n(C(=O)CN2CCC(C(N)=O)CC2)c2ccccc12,i,-1.8%,10%,i,1e-09
O=C(CSc1nnc2ccccn12)NCCN1C(=O)CSC1=O,i,0.7%,/,i,2.8e-09
CC(C)NCC(O)COCc1ccc(Cl)cc1 (configuration not stated),i,0.0%,19%,i,8.4e-09
CCN1CCN(C(c2ccccc2F)c2nnnn2Cc2ccc3c(c2)OCO3)CC1 (configuration not stated),i,1.2%,7%,i,1.2e-09
O=C1c2ccccc2NC(c2ccc3c(c2)OCCO3)N1c1ccc2c(c1)OCCO2 (configuration not stated),i,1.8%,?,i,1.9e-08

# Whole records as entered above. Order of values: A488 fluor | AID923 | TSHR agonist | Resorufin fluor | A647 fluor
# CCOc1ccc(OCc2ccc(C(=O)NCc3ccncc3)o2)cc1 is listed as i | -0.7% | 10% | i | 4.1e-09
# O=C(C1CCCN(c2nnc(-n3cccc3)s2)C1)N1CCN(c2ccccc2)CC1 (configuration not stated) is listed as / | -2.0% | 6% | / | /

# The list continues:
SMILES,A488 fluor,AID923,TSHR agonist,Resorufin fluor,A647 fluor
CCCOc1cccc(OCCSc2nc(C)cc(=O)[nH]2)c1,i,-4.0%,/,i,1e-09
CC(=O)OCC(OC(C)=O)C(OC(C)=O)C(OC(C)=O)C(=O)Nc1ccccc1C (configuration not stated),i,0.1%,0%,i,1e-09
O=C(CCCCC(=O)Nc1c(I)cc(I)c(C(=O)O)c1I)Nc1c(I)cc(I)c(C(=O)O)c1I,i,-1.1%[25.7 µM],/,i,4.5e-08
COc1ccc(-n2c(Cc3cccn3C)nnc2SCC(=O)Nc2cc(C)cc(C)c2)cc1,/,-6.8%,-3%,/,/
O=C(CSc1nnc(Cc2ccccc2)n1C1CCCCC1)N1CCOCC1,i,0.5%,?,i,1.4e-08
Cc1cc2cc(CN(Cc3ccc4c(c3)OCO4)Cc3nnnn3C3CCCC3)c(=O)[nH]c2cc1C,i,-0.2%,?,i,1e-09
CSc1n[nH]c(NCc2cccs2)n1,i,-0.2%,1%,i,3.9e-08
NC(=O)CCn1nc(-c2ccc(Cl)cc2)c2ccccc2c1=O,i,-0.6%,7%,i,1e-08
CCCCc1cc2c(c(NC(C)=O)n1)c(=O)oc1ccccc12,/,0.0%,-1%,/,/
CC(=O)c1ccc(N2CCN(C(=O)c3ccco3)CC2)c(F)c1,i,1.2%,-5%,i,1e-09
Cc1ccc(-c2n[nH]c(=O)c3ccccc23)cc1N,i,0.0%,?,i,3.5e-09
Cc1cc(C)n(-c2ccc(C(=O)Nc3sccc3C(N)=O)cc2)n1,i,0.9%,4%,i,1.2e-09
COCC(=O)Nc1ccc(Nc2ccccc2)cc1,i,-0.1%,-4%,i,4.6e-08
Cc1nnc(SC(C)C(=O)NCC2CCCO2)n1-c1ccccc1 (configuration not stated),i,2.3%,5%,i,2.6e-09
CCN(CC)CC(C)(C)NS(=O)(=O)c1ccc(Cl)cc1,i,2.1%,/,i,2.3e-08
Cc1nc2cnc(Oc3ccccc3)nc2n(C2CC2)c1=O,i,-0.4%,?,i,1.8e-08
O=c1oc2ccccc2c(O)c1/C=N/c1ncccn1,i,-3.0%,2%,i,1.5e-08
CN(c1ccccc1)c1nc2ccsc2c(=O)s1,i,4.2%,?,i,1.2e-08
CC(Sc1nncn1C)C(=O)Nc1nnc(C(C)C)s1 (configuration not stated),/,-4.0%,-12%,/,/
O=C(NCc1ccccc1)c1cc(=O)nc2sc(-c3ccccc3)nn12,i,1.1%,?,i,1e-09
CCn1ccc(C(=O)Nc2ccc(S(=O)(=O)Nc3ccccc3OC)cc2)n1,i,6.0%,18%,i,8.5e-09
O=c1c(-c2ccc(F)cc2)nc2cncnc2n1C1CC1,i,1.1%,2%,i,3.7e-08
Cc1ccccc1CSc1nnc(C)c(=O)[nH]1,/,0.6%,10%,/,/
COCCNC(=O)c1ccccc1-c1nc(-c2ccccc2Cl)no1,i,0.1%,1%[11.4 µM],i,1e-09
CN(C(=O)C1CCOC1)c1nnc(-c2cccnc2)s1 (configuration not stated),i,-0.4%,-6%,i,3.5e-08
CCCCCCCCNC(C)C(O)c1ccc(SC(C)C)cc1 (configuration not stated),i,-1.4%,/,i,2.8e-09
COCCN(C(=O)COc1ccccc1)c1nnc(-c2cccnc2)s1,i,2.4%,1%,i,2.1e-09
Cn1cccc1C(=O)N1CCC2(CCCN(C(c3ccccc3)c3ccccc3)C2)CC1,i,3.2%,3%,i,1.1e-08
N#Cc1cnn(-c2ccccc2)c1N,i,6.4%,1%,i,2.2e-09
CCOC(=O)C1CCN(C2CC(=O)N(c3cccc(Cl)c3)C2=O)CC1 (configuration not stated),/,-2.0%,-4%,/,/

# Look-ups from the list:
# COCCNC(=O)c1ccccc1-c1nc(-c2ccccc2Cl)no1 – AID923 = 0.1%
# O=C(NCc1ccccc1)c1cc(=O)nc2sc(-c3ccccc3)nn12 – A647 fluor = 1e-09
# N#Cc1cnn(-c2ccccc2)c1N – A647 fluor = 2.2e-09
# CN(C(=O)C1CCOC1)c1nnc(-c2cccnc2)s1 (configuration not stated) – A647 fluor = 3.5e-08
# Cc1ccccc1CSc1nnc(C)c(=O)[nH]1 – TSHR agonist = 10%

# Part of the list above in another layout:
smiles	A488 fluor	AID923	TSHR agonist	Resorufin fluor	A647 fluor
CCn1ccc(C(=O)Nc2ccc(S(=O)(=O)Nc3ccccc3OC)cc2)n1	i	6.0%	18%	i	8.5e-09
O=c1c(-c2ccc(F)cc2)nc2cncnc2n1C1CC1	i	1.1%	2%	i	3.7e-08

# Other records follow:
SMILES,A488 fluor,AID923,TSHR agonist,Resorufin fluor,A647 fluor
O=C1CCc2cc(S(=O)(=O)NC(Cc3ccccc3)C(=O)NCC3CCCO3)ccc2N1 (configuration not stated),/,-2.4%,7%,/,/
O=C(C1CCN(S(=O)(=O)c2cccc3cccnc23)CC1)N1CCN(c2ccc(Cl)cc2)CC1,/,1.6%,?,/,/
CCN1CCN(C(c2cccs2)C(C)NC(=O)C(C)C)CC1 (configuration not stated),/,4.4%,3%,/,/
Cc1ccccc1C(=O)Nc1cccc(N)c1,i,0.9%,-6%,i,2.9e-08
O=S(=O)(c1cccc(S(=O)(=O)N2CCC(Cc3ccccc3)CC2)c1)N1CCOCC1,i,0.1%,6%,i,1e-09
Cc1cccc(OCCCC(=O)Nc2nccs2)c1,i,0.3%,1%,i,3.2e-09
CS(=O)(=O)Nc1ccc(C(=O)N2CCCCC2)cc1,i,0.0%,10%,i,4.1e-08
O=C(Nc1cccc(F)c1)N1CC2(CCN(C(=O)c3cnccn3)CC2)C1,i,-2.7%,-3%,i,2.5e-09
CC(NC(=O)c1cccc(C(F)(F)F)c1)C1CCCO1 (configuration not stated),i,-0.2%,2%,i,2.5e-08
COc1ccc(Cn2nnnc2C(c2ccc(N(C)C)cc2)N2CCC(C)CC2)cc1 (configuration not stated),i,13%,?,i,9.4e-09
COc1ccccc1N1CCN(C(=O)CSc2ncccc2-c2nc3ccccc3[nH]2)CC1,i,7.1%,10%,i,6.5e-08
Cc1cc(C(=O)N2CCCc3ccccc32)no1,i,2.4%,8%,i,2.7e-09
CC1(C)CC(=O)CC(=NCC(=O)O)C1,/,8.7%,2%,/,/
Cc1cc(/C=N/n2cnnc2)c(C)n1-c1cccc(Cl)c1,/,2.4%,25µM*,/,/
COc1ccc(N2C(=O)CC(NC34CC5CC(CC(C5)C3)C4)C2=O)c(OC)c1 (configuration not stated),i,0.3%,-4%,i,2.6e-08
N#Cc1ccccc1OCC(=O)Nc1c(C(=O)C2CC2)oc2ccccc12,i,0.3%,?,i,5.2e-09
OCCOCCn1c(-c2ccccc2)nc(=S)c2c1CCCC2,/,0.7%,-3%,/,/
C=CCn1c(-c2ccc(OC)c(OC)c2)cs/c1=N\c1ccccn1,i,0.9%,4%,i,7.4e-09
O=C(O)c1[nH]c2ccccc2c1CC(=O)N1CCOCC1,i,-0.2%,1%,i,1e-09
CCCCn1c(SCC(=O)Nc2cc(C)on2)nc2ccccc2c1=O,i,-1.2%,-6%,i,1e-09
CC(C)NC(=O)CN1CCN(c2ncccn2)CC1,i,1.4%,-2%,i,8.7e-09
CCOc1ccccc1-n1c(SCC(=O)N(C(C)C)C(C)C)nnc1-c1cccnc1,i,-0.1%,?,i,4.6e-08
CCCCc1ccc(Nc2ncnc3nc[nH]c23)cc1,/,-1.3%,6%,/,/
CCOc1ccccc1NC(=O)CCC(=O)O,i,-0.5%,9%,i,2.2e-08
O=C(CSc1nnc(-c2ccncc2)n1-c1ccc(F)cc1)NC(=O)NCc1ccco1,i,-0.8%,-2%[11.4 µM],i,2.1e-08
O=C(CSc1nnc(Cc2ccccc2)n1-c1ccccc1)N1CCOCC1,i,0.7%,2%,i,2.2e-09
CN(CCCNC(=O)Cn1cc2c(n1)CCCC2)C1CCCCC1,/,1.1%,8%,/,/
CCC(C)(C)n1nnnc1CN1CCSCC1,i,-1.8%,-4%,i,1.3e-09
Cc1cc(Nc2ccc(C)c(F)c2)n2ncnc2n1,i,1.1%,/,i,4.7e-08
CC(C)N(Cc1ccccc1)S(=O)(=O)N(C)C,i,0.3%,?,i,1e-09
C=C(C)COc1ccc2c(C)c(CC(=O)OC)c(=O)oc2c1C,i,4.5%,?,i,2.9e-09
CC(C)=CC1C(C(=O)Nc2ccc(Br)cn2)C1(C)C (configuration not stated),/,0.1%,?,/,/
Cc1n[nH]c(C)c1-c1nc2ccccc2[nH]1,i,-2.1%,0%[11.4 µM],i,6.8e-09
O=C(Oc1cc(=O)oc2ccccc12)c1ccco1,i,-1.0%,?,i,1e-09
COC(=O)NCCOc1cc(C)ccc1C,i,-0.1%,1%,i,5.5e-09
CCSc1ncc(Cl)c(C(=O)Nc2ccc(S(=O)(=O)Nc3onc(C)c3C)cc2)n1,i,0.7%,/,i,9.7e-09
Cc1cccc(-c2nnc(-c3ccc(N)cc3)o2)c1,i,-1.8%,9%,i,3.3e-08
O=C(O)[C@H]1CCCC[C@@H]1C(=O)Nc1nc2ccccc2[nH]1,i,0.2%[11.5 µM],1%[11.4 µM],i,1e-09
COc1ccc(NS(=O)(=O)c2ccc3c(c2)oc(=O)n3C)c(OC)c1,/,-0.1%,3%,/,/
Cc1c(C(=O)NCc2ccco2)sc2nc(-c3ccccc3)cn12,/,-1.5%,5%,/,/
O=C(O)C1Nc2c(O)cccc2C2C=CCC12 (configuration not stated),i,3.7%,0%,i,2.2e-08
CCc1ccc(OCC(=O)N(C)C2CCS(=O)(=O)C2)cc1 (configuration not stated),i,-1.5%,-2%,i,1.1e-08
O=C(Cc1cccs1)Nc1ccc2c(c1)C(=O)OC2,i,2.3%,-2%,i,1.7e-09
